Cruzain inh noDet: blocks cruzain activity in detergent-free assay. Potency, µM, for the others: max response, negative = inhibition, usual class: inhibitors. AID 1476. purified cruzain, Z-FR-AMC fluorescence, no detergent. actives 2.3% (n = 200,000);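 note: plate controls were enzyme without inhibitor for no effect and buffer without enzyme for full effect; nearly all actives have a fitted effect of over 40% in size; top concentration of the series not given in the record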
Target sequence (P25779 123-467 limits assumed): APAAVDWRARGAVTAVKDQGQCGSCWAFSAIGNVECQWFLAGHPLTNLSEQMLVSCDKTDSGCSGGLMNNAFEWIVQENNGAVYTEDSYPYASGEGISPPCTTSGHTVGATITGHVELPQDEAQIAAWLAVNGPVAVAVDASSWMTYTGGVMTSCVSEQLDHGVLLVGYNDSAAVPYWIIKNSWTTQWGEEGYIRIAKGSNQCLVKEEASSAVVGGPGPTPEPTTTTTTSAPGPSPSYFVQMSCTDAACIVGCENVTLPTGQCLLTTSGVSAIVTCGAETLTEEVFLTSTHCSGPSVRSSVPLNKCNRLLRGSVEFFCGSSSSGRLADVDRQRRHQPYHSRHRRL
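Purified cruzain at 1.5 nM, pre-incubated 15 min with compound at room temperature in 100 mM sodium acetate pH 5.5, 5 mM DTT, 0.00005% Triton X-100. Reaction started with 2 uM Z-FR-AMC; AMC fluorescence increase over 60 s gives rate.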
SARS PLpro yeast: inhibitors of SARS-CoV papain-like protease in yeast; S. cerevisiae expressing SARS-CoV PLpro, growth rescue; control for the full effect not named in the record; Potency, µM (series often up to 32.9 µM), inactives show at the top dose activity, positive = growth rescue; actives 0.19% (n = 330,000); AID 485353; active means well fitted rising curve with a large enough effect; inconclusive means small, poorly fitted or top-dose-only effect; inactive means no such curve, though single readings can be large or run the other way; note: 0% is about no effect; nearly all actives have a fitted effect of over 55% in size; growth read by luminescence after 48 h
RE007 growth inh: less growth of the S. pombe RE007 Vpr strain; S. pombe RE007 Vpr strain, BacTiter-Glo ATP luminescence, 24 h; control for the full effect not named in the record; Potency, µM (titrated, usually from 92.2 µM), inactives show at the top dose activity change, negative = less growth; actives 0.21% (n = 360,000); AID 651644; active = well fitted falling curve with a large enough effect; inconclusive = small, poorly fitted or top-dose-only effect; inactive = no such curve, though single readings can be large or run the other way;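 note: % is set by controls: 0 for no effect and ±100 for the full control effect; nearly all actives have a fitted effect of over 50% in size; the assay follows cell death caused by Vpr and the record does not say whether a fall means rescue or toxicity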
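Fission yeast strain RE007, carrying one chromosomally integrated HIV-1 vpr copy, was seeded at OD 0.01 in PMG+AL medium with 23 nL pinned compound. After 24 h at 30 °C and 99% humidity, viability was read by BacTiter-Glo luminescence.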
StopGo reporter: FMDV 2A StopGo reporter, luciferase signal. human cells with a luciferase reporter of 2A StopGo recoding; control for the full effect not named in the record. AID 1159524. actives 1.2% (n = 410,000). Potency, µM (top dose mostly 57.9 µM), for the others: top-dose signal change, negative = less light; active = well fitted falling curve with a large enough effect; inconclusive = small, poorly fitted or top-dose-only effect; inactive = no such curve, though single readings can be large or run the other way; tested in HEK293T cells; note: % is set by controls: 0 for no effect and ±100 for the full control effect; nearly all actives have a fitted effect of over 45% in size; luciferase light after 4 h
MARV entry inh: inhibitors of Marburg virus binding or cell entry; AID 540276; actives 1.8% (n = 300,000); Marburg virus pseudotyped entry inhibition, cell reporter; control for the full effect not named in the record; about a third of the inactives were read at about 46 µM; Potency, µM (titrated, usually from 37.8 µM), without a hit: at the top dose activity change, negative = inhibition, actives largely listed as inhibitors; active = well fitted inhibition curve with a large enough effect; inconclusive = small, poorly fitted or top-dose-only effect, or effect the other way; inactive = flat fitted curve, though single readings scatter; tested in HEK293 cells; about a fifth of its hits are not listed in these tables; note: % is set by controls: 0 for no effect and ±100 for the full control effect; luciferase read-out
Lassa entry inh: blocks Lassa virus binding to or entry into cells | Potency, µM (top dose mostly 37.9 µM), for inactives: at the top dose activity change, negative = inhibition, actives largely listed as inhibitors | actives 1.2% (n = 300,000) | Lassa virus pseudotype entry inhibition, cell reporter; control for the full effect not named in the record; active means well fitted inhibition curve with a large enough effect; inconclusive means small, poorly fitted or top-dose-only effect, or effect the other way; inactive means flat fitted curve, though single readings scatter; tested in HEK293 cells; note: % is set by controls: 0 for no effect and ±100 for the full control effect; nearly all actives have a fitted effect of over 50% in size; luciferase read-out
NS1 function inh: inhibitors of influenza NS1 protein function | Potency, µM (doses to about 46.1 µM), for inactives: top-dose activity, positive = more growth | S. cerevisiae slowed by influenza A NS1, growth recovery by OD600 | actives 0.4% (n = 270,000); active means well fitted rising curve with a large enough effect; inconclusive means small, poorly fitted or top-dose-only effect; inactive means no such curve, though single readings can be large or run the other way; note: nearly all actives have a fitted effect of over 50% in size
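Recovery from NS1-induced slow growth read by OD600 in budding yeast switched to galactose assay medium (pH 6.0, -URA) at 1:100 dilution. Compound 23 nl per well; the matching strain lacking NS1 serves as control.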
Cruzain Triton: blocks cruzain activity in presence of Triton detergent; AID 1478; Potency, µM, for the others: max response, negative = inhibition, usual class: inhibitors; purified cruzain, Z-FR-AMC fluorescence, 0.01% Triton; actives 0.43% (n = 200,000); P25779;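 note: plate controls were neutral wells for no effect and buffer without enzyme for full effect; nearly all actives have a fitted effect of over 40% in size; top concentration of the series not given in the record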
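Purified cruzain (1.5 nM final) was preincubated with compounds for 15 min at room temperature in 100 mM sodium acetate pH 5.5, 5 mM DTT, 0.01% Triton X-100. Reaction started with 2 uM Z-FR-AMC; AMC fluorescence change over 60 s gave activity.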
* = called active by the depositor; ? = inconclusive; . = no result given; & = joins results of further samples; [ ] = another dose, or the depositor's remark. Unless noted, calls come from the whole dose curve; as a rule, active = well fitted curve in the direction sought with a large enough effect; inconclusive = small, poorly fitted or top-dose-only effect, or another doubt; inactive = no such curve, though single readings can be large; an effect the other way counts as inactive or inconclusive. Potency is the fitted concentration of half-maximal effect.

SMILES	Cruzain inh noDet	SARS PLpro yeast	RE007 growth inh	StopGo reporter	MARV entry inh	Lassa entry inh	NS1 function inh	Cruzain Triton
CCN(Cc1ccccc1)C(=O)Cn1c(=O)n(CC(=O)NCc2ccco2)c(=O)c2sccc21	-17%	4%	-13%[3.69 µM]	-25%	4%&3%	8%	17%	-3.5%
O=C(Nc1ccc(Cl)cn1)c1ccc(COCC(F)(F)C(F)F)o1	-8%	-5%	?	25%	?	?	-11%	-1.6%
O=C(COc1ccc2ccccc2c1Br)Nc1ncn[nH]1	-9%	-1%	-4%	54%[activator]	?	?	21%	1.4%
Cc1cc(Br)ccc1NC(=O)c1ccccc1-c1ccccc1	10%	-70%	18%	-20%	-23%	0%	-23%	-7.9%
COc1cc2nc(C)sc2cc1SC	-8%	5%	?	-3%	-2%	13%	-7%	-1.3%
O=S(=O)(Nc1cccc(-c2nc3cccnc3s2)c1)c1ccc2c(c1)OCCO2	6%	-5%	-1%	43%[activator]	.	.	-32%	2.3%
CCCNC(=O)COc1coc(CN2CCN(c3ccc(F)cc3)CC2)cc1=O	.	5%	5%	-22%	.	.	1%	.
COc1cc(C2Nc3ccccc3C(=O)N2c2ccc(Cl)cc2)c(Cl)cc1OCC(=O)O (configuration not stated)	?	11%	8%	35%[activator]	?	29%	3%	-3.9%
O=C(CCc1nc(-c2ccccc2)no1)NC1CCCCC1	-2%	-23%	-7%	-4%	22%	2%	-17%	-1.8%
O=C(O)/C=C/c1ccc(S(=O)(=O)Nc2ccc(C(=O)NCC(=O)O)cc2)cc1	.	0%	18%	-3%	11%[46.1 µM]	10%	6%	.
CN1CCc2c(C#N)c(N3CCOCC3)nc(NCC3CCCO3)c2C1 (configuration not stated)	.	0%	2%	-10%	.	.	4%	.
O=C(OCCN1C(=O)c2ccccc2C1=O)C1CCN(S(=O)(=O)c2cccs2)CC1	15%	5%	3%	1%	14%&14%	11%	-7%	-3.0%
CCOC(=O)C1CCCN(C(=O)c2ccc(C)c([N+](=O)[O-])c2)C1 (configuration not stated)	-1%	8%	2%	-4%	-22%	-3%	0%	-0.4%
O=C1c2ccccc2C(=O)N1CCCCNc1ccccc1	.	.	10%	16%	?	-26%	.	.
CC(C)c1ccccc1OCCNS(C)(=O)=O	2%	2%	-10%	-15%	-2%	-5%	-15%	-0.4%
CCOC(=O)c1c(C)[nH]c(C(=O)COC(=O)[C@H](C)NC(=O)c2ccccc2Cl)c1C	-1%	10%	-8%	44%[activator]	0%	3%	-9%	-27%
CCc1ccc2nc3sc(C(=O)Nc4nnc(CC)s4)c(N)c3cc2c1	-3%	-9%	-7%	.	18%	2%	-2%	0.2%
CC1CCCC(NC(=O)CCC(=O)N2CCOc3ccccc32)C1C (configuration not stated)	.	-1%	-9%	11%	.	.	0%	.
CN(C)S(=O)(=O)c1ccc(NC(=O)CSc2nc3ccccc3n2-c2ccccc2)cc1	3%	-3%	2%	0%	?	18µM*	10µM*	-5.5%
CC(=O)Nc1ccc(Sc2ncccc2C(=O)Nc2cc(Cl)cc(Cl)c2)cn1	12%	?	4%	-13%	2%	-8%	10%	8.4%
Cc1cccc(Nc2ccccc2C(=O)OCC(=O)N(C)C2CCS(=O)(=O)C2)c1C (configuration not stated)	?	7%	2%	.	-21%	-24%	6%	-11%
NC(=O)C(=O)NCCCN1CCOCC1	.	1%	1%	-18%	17%[46.1 µM]	-2%	0%	.
CCc1cc(C(=O)NNC(=S)NC2CCCCC2)cs1	.	4%	3%	77%[activator]	.	.	6%	.
CCOc1cc(C2C(C#N)=C(N)Oc3n[nH]c(C)c32)ccc1OCCN1CCOCC1 (configuration not stated)	-7%	5%	-5%	0%	4%	12%	-4%	1.0%
O=C(NNC(=S)NCc1ccco1)c1ccc(S(=O)(=O)N2CCOCC2)cc1	.	1%	21%	-17%	3%[46.1 µM]	-1%	-1%	.
CCOC(=O)N1CCN(C(=O)CSC2=NS(=O)(=O)c3cc(Cl)ccc3N2)CC1	.	1%	-1%	2%	10%	?	.	.
CC/C(=N\NC(=O)CSCc1ccccc1Br)c1ccc2c(c1)OCCO2	-6%	-2%	1%	-23%	?	-3%	7%	-1.0%
Cc1ccc2nc(-c3ccccc3)c(CN3CCSCC3)n2c1	.	-7%	-7%	-23%	?	-15%[46.1 µM]	.	.
CC(=O)Nc1ccc2nc(N)sc2c1	.	.	37%	17%	15%	6%	.	.
NS(=O)(=O)c1ccc(NC(=O)c2cc(Cl)sc2Cl)cc1	.	5%	20%	-1%	.	.	6%	.
CCOc1ccc(CNC(=O)c2ccc3c(c2)sc2nc(-c4ccc(OC)cc4)cn23)cc1	-3%	.	.	8%	.	-2%[46.1 µM]	.	0.8%
N#Cc1nc(Cc2ccccc2)oc1NCc1ccccc1Cl	1%	-27%	5%	4%	-3%&-3%	5%	-227%	-9.7%
CCn1c(SCC(=O)NC)nnc1C(C)C	-1%	10%	6%	3%	-5%	0%	0%	5.4%
COc1cc(C2Nc3cccc4cccc(c34)N2)ccc1OC(C)=O	-3%	2%	-1%	9%	-22%	1%	?	-11%
CC1CCC(NC(=O)c2ccc3c(c2)N(Cc2ccccc2)C(=O)c2ccccc2S3(=O)=O)CC1 (configuration not stated)	-11%	.	.	29%	?	-26%[46.1 µM]	.	1.3%
O=C(NCCc1ccccc1)C(=O)N/N=C/c1ccc2c(c1)OCO2	20µM*	10%	-18%	-28%	-13%	-21%	19%	5.2%
CC1(C)C(=O)N(CC(=O)Nc2ccc(OC(F)(F)F)cc2)c2ccccc21	7%	.	.	-25%	.	0%[46.1 µM]	.	-8.1%
CCCc1cc(=O)[nH]c2nnc(SCC)n12	6%	.	.	-5%	.	6%[46.1 µM]	.	-0.1%
Cc1cc(C(=O)COc2ccc3ccc(=O)oc3c2)c(C)n1Cc1cccs1	?	5%	12%	?	.	-6%	10%	-5.8%
Cc1ccc(NC(=O)c2ccccc2NS(=O)(=O)c2ccc(Cl)s2)cc1S(=O)(=O)N1CCOCC1	?	0%	-6%	?	?	?	16%	-29%
Cc1ccc(NC(=O)C2C3CCC(O3)C2C(=O)O)cc1C (configuration not stated)	.	-6%	4%	-6%	.	.	4%	.
O=[N+]([O-])c1cc(/C=N\Nc2nc(-c3ccccc3)cs2)ccc1O	.	1%	0%	20%	1%[46.1 µM]	-6%[46.1 µM]	.	.
CCc1ccc(NC(=O)Cn2c(=O)n(CCCC(=O)NCc3ccccc3Cl)c(=O)c3ccccc32)cc1	-9%	.	.	-29%	12%[46.1 µM]	10%[46.1 µM]	.	0.8%
CC(=O)c1cccc(NC(=O)CN2C(=O)CN(C)C(=O)c3ccccc32)c1	2%	.	.	7%	.	7%[46.1 µM]	.	0.9%
CC#CC(=O)N1CCC(Oc2cccc(C(=O)NCc3ccccn3)c2)CC1	.	-5%	7%	-19%	-13%	2%	1%	.
CCN(CC)C(=O)CN1C(=O)COCC1=O	15%	2%	-3%	.	30%	10%	0%	3.0%
CC(OC(=O)c1ncc(Cl)c(Cl)c1Cl)C(=O)NC1CCCCC1C (configuration not stated)	.	-2%	28%	0%	?	-20%	.	.
O=C(CN(C(=O)CSc1nnc(COc2ccccc2)o1)c1ccc(F)cc1)NC1CCCCC1	7%	-1%	7%	.	-27%	-18%	-22%	-0.9%
C[C@H](NC(=O)c1nc[nH]c1C(=O)N[C@@H](Cc1ccccc1)C(=O)OC(C)(C)C)C(=O)OC(C)(C)C	.	-2%	-11%	-15%	.	.	?	.
CCN(CC)S(=O)(=O)c1ccc(NC(=O)CSc2ncnc3ccccc23)cc1	23%	-40%	3%	0%	-6%	-15%	1%	-4.1%

Further entries follow:
SMILES	Cruzain inh noDet	SARS PLpro yeast	RE007 growth inh	StopGo reporter	MARV entry inh	Lassa entry inh	NS1 function inh	Cruzain Triton
COc1ccc(C2=NOC(C(=O)NCc3cccnc3)C2)cc1OC (configuration not stated)	.	5%	9%	-19%	?	-19%[46.1 µM]	0%	.
COC(=O)CN1C(=O)CSc2ccc(S(=O)(=O)Nc3ccc(C(C)=O)cc3)cc21	-4%	.	.	79%[activator]	.	21%[46.1 µM]	.	-1.2%
O=C(COc1ccccc1)NC(=S)Nc1cccc2cc(O)ccc12	.	-5%	-12%	-13%	.	.	13%	.
O=C(COc1cc2oc(=O)c3c(c2cc1Cl)CCC3)NCCN1CCOCC1	.	-2%	-6%	-9%	17%[46.1 µM]	0%[46.1 µM]	-6%	.
Clc1nnc(Cl)c2c1ncn2Cc1ccccc1	.	0%	-6%	-23%	.	.	0%	.
C/C(=N/Oc1nc(C)cc(C)n1)c1ccc(Cl)cc1Cl	-8%	8%	12%	?	8%	-25%	-16%	-0.1%
CC1(C)CC(N2CCN(Cc3ccccc3)CC2)=CC(=[N+]2CCCCC2)C1	.	1%	-21%	?	6.5µM*	?	-6%	.
NC(=O)C1=C[C@H](c2coc3ccccc3c2=O)C[C@H](OCc2ccc(CO)cc2)O1	.	0%	4%	-2%	.	.	5%	.
Cc1ccc(NC(=O)c2cnccn2)cc1S(=O)(=O)N(C)C	2%	17%	-5%	10%	-10%	?	20%	1.1%
CCOc1ccc(NS(=O)(=O)c2coc(C(N)=O)c2)cc1	.	4%	5%	-2%	.	.	21%	.
Cc1ccc(CNC(=O)COC(=O)c2ccc(S(=O)(=O)N(C)C)cc2)cc1	.	3%	-5%	-3%	-6%[46.1 µM]	-3%	.	.
Cc1ccc(S(=O)(=O)NC(=O)c2cc(C)n(CCCn3ccnc3)c2C)cc1	-2%	0%	-3%	-11%	-1%	2%	2%	4.0%
Cc1ccc(OCC(=O)Nc2ccc(S(=O)(=O)N3CCN(C)CC3)cc2)cc1	4%	-14%	0%	-8%	?	20%	-3%	-5.0%
COc1ccc(NC(=O)NCCCN2CCN(c3cc(C)ccc3C)CC2)cc1	-4%	-3%	-4%	?	.	.	-6%	-3.8%

Assay outcomes: PubChem, National Center for Advancing Translational Sciences (NCATS)

No enrichment for hits. Share with any hit: about 4.5%.
